Ecoli rRNA inh: inhibits bacterial ribosomal RNA function over humanized ribosomes; E. coli WT GFP vs humanized-ribosome RFP mutants, fluorescence, 24 h; hits give low values; DMSO median 0, no signal -100; GFP signal change (wild-type ribosome), % (test concentration not listed); hit rate 1.6% among 350,000; AID 720706;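 active = significant combined selectivity score with lowered wild-type GFP, culture density cut under 30%, mutant RFP and density less affected; inactive = any of these conditions unmet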; also: one replicate is shown; some compounds called inactive have numbers as strong as hits
MLL AF4-AF9 inh: inhibitors of human MLL-AF4/AF9 interaction. P42568. AlphaScreen, biotin-AF4 peptide binding to FLAG-AF9. inhibition, % at 10 µM. hit rate 0.47% among 350,000. AID 651704;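 active = every replicate reaching a set inhibition limit, whatever the replicate mean, cut at about 25% in these data; inconclusive = mean inhibition reaches that limit but some replicates miss it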;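 also: 0% = plate neutral control median and 100% = total signal loss; the record names both 10 and 1 µM as test concentration; the first replicate is given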
Target sequence (P42568 whole entry, looked up): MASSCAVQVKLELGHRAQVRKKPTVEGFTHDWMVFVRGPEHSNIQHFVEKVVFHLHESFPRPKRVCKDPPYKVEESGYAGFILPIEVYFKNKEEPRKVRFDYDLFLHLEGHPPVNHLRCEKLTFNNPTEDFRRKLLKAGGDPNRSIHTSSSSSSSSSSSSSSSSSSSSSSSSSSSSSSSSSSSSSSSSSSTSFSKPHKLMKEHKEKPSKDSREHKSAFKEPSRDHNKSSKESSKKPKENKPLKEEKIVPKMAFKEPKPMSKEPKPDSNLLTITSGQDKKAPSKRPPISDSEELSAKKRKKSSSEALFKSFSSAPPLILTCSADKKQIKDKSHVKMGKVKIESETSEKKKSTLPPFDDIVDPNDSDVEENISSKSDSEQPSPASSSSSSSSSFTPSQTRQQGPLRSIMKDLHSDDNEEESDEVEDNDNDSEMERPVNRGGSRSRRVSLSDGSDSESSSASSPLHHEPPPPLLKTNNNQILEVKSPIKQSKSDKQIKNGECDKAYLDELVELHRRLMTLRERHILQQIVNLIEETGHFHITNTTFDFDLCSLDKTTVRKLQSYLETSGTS
Beta apoptosis: blocks beta cell apoptosis. INS-1E cytokine-induced death, ATP luminescence, 48 h; percent of positive-control rescue, neutral wells zero. protection from apoptosis, % (concentration not given with the values). hit rate 0.8% among 300,000. AID 435005;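 active = all replicates at 75% or more, or half of them and the mean; inconclusive = half reach 75% but not the mean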;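 also: 0% = cytokine-treated negative control wells and 100% = positive control rescue; higher means more ATP so stronger rescue from cytokine killing; wells of about 40 µL received 100 nL stock; the first replicate is given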
Bfl-1 A1 inh: inhibitors of the anti-apoptotic protein A1, read as caspase activation; MEF A1-2A-BIM cells, Caspase-Glo 3/7 luminescence, 3 h; percent of clofoctol response, vehicle zero; caspase activation, % (concentration not given with the values); hit rate 0.066% among 330,000; AID 2462;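 active = over half of replicate activation scores above 10%, or exactly half above 10 with the replicate mean above 10; inconclusive = replicate mean below 10 yet half the replicates above 10; inactive = over half of replicates below 10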;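 also: wells of about 30 µL received 50 nL stock; many hits fall short of the cut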
Calb FLC: C. albicans growth modulation with fluconazole; C. albicans CaCi-2 (fluconazole-resistant clinical isolate) + fluconazole, Alamar Blue growth, 48 h; growth inhibition, % (no concentration beside the values); hit rate 0.57% among 300,000;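 active = most replicates above 75%; inconclusive = exactly half above 75%; inactive = most below 75%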;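 also: all wells also contain fluconazole at 8 µg/ml as a sub-toxic cotreatment; 0% = median of DMSO wells and 100% = median of geldanamycin control wells; wells of about 8 µL received 7.5 nL stock; the first replicate is given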
Vif TR-FRET: inhibitors of Vif binding to APOBEC3G peptide, primary screen, biochemical, TR-FRET, GST-Vif 1-94, biotin-A3G peptide, dose response retest (AID 1117319). inhibition, %, or IC50 in µM where a hit was titrated. hit rate 0.57% among 260,000. TR-FRET GST-Vif / biotin-A3G peptide binding; higher % means a stronger effect; test concentration not given here; strong numbers were not always called active;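 active = above the screen mean plus three standard deviations and confirmed in dose response; inconclusive = results disagree or hit not tested in dose response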;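 also: Vif residues 1-94 fused to GST binding biotinylated APOBEC3G peptide 110-148; 0% = full assay without inhibitor and 100% = GST in place of GST-Vif; retest series ran down from 100 µM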
T cruzi inh: blocks replication of Trypanosoma cruzi. hit rate 1.4% among 300,000. inhibition, % (concentration not given with the values). T. cruzi beta-gal in NIH3T3, luminescence, 90 h;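 active = mean inhibition across valid replicates above about 55%, limit read from the data; inconclusive = mean below that limit but half or more replicates reach it; inactive = mean below it, under half of replicates reach it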;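 also: signal also drops with host cell toxicity which is not excluded here; 0% = plate median of DMSO wells and 100% = zero luminescence signal; higher percent means less beta-gal luminescence so fewer parasites; stock transfer was 50 nL into about 50 µL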
RanGTP-Imp inh: disruptors of Ran-importin-beta complex formation – biochemical, FRET, CFP-Ran, YFP-importin-beta, homogeneous, primary screen; cell-free CFP-Ran/YFP-importin-beta FRET ratio; inhibition, % (no concentration beside the values); hit rate 1.1% among 300,000;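 active = most replicates above 15%; inconclusive = exactly half above 15%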;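 also: 0% = DMSO wells and 100% = Ran loaded with GDP instead of GTP; wells of about 40 µL received 100 nL stock; the first replicate is given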
Ecoli rRNA inh OD600: second read-out of Ecoli rRNA inh, no call of its own (marks repeat the call); OD600 change, %; measured here: OD600 growth;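 optical density of the mix in the first replicate; 0 = DMSO median and -100 = no signal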
Ecoli rRNA inh RFP: further read-out of Ecoli rRNA inh, marked with its call; RFP signal change, %; measured here: RFP humanized mutant strains;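 first replicate; 0 = DMSO median and -100 = no signal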
Numbers without * were called inactive; ? = inconclusive; . = not tested or not shown; & = joins results of further samples. This is a subset (hit frequency here may not be typical).

SMILES | Ecoli rRNA inh | Ecoli rRNA inh OD600 | Ecoli rRNA inh RFP | MLL AF4-AF9 inh | Beta apoptosis | Bfl-1 A1 inh | Calb FLC | Vif TR-FRET | T cruzi inh | RanGTP-Imp inh
CCOC(=O)c1cc(-c2csc(COc3ccc(Cl)cc3)n2)on1 | 12 | 9 | -0.4 | 0.2 | . | 0.0 | 0 | -3% | -3 | 1.8
c1csc(-c2nc3ccccc3s2)c1 | 2 | 15 | -1.1 | -2.4 | -7 | -8.4 | -4 | . | 9 | -2.2
COCCCNC(=O)c1cc2c(=O)n3cccc(C)c3nc2n(C(C)C)c1=N | . | . | . | . | -4 | -0.2 | 5 | -7% | -2 | 188*
O=C(CN1CCCC1)Nc1ccc(F)c(Cl)c1 | -1 | 8 | -4.0 | -5.0 | -4 | 0.3 | -6 | . | -9 | 2.6
CCOC(=O)C1CCCN(c2c(NCCN(C)Cc3ccccc3)c(=O)c2=O)C1 (stereo unspecified) | 10 | 15 | -0.4 | 3.2 | 0 | 0.2 | -6 | -2% | 9 | -4.7
COc1cccc2c1c(NC(=O)Nc1ccc(F)cc1F)nn2C | 23 | 15 | 1.8 | -1.3 | 6 | -2.4 | -7 | 15% | 25 | 2.2
CSCCC(NC(=O)c1ccco1)C(=O)N1CC=C(c2ccccc2)CC1 (stereo unspecified) | -7 | 4 | 20 | 3.1 | -3 | 0.4 | -5 | . | -1 | 1.4
Cc1ccc(NC(=O)C(CC(=O)O)C2CCCO2)c(C)c1 (stereo unspecified) | 14 | 14 | 0.5 | -15 | -5 | 1.3 | -4 | -4% | -7 | -0.3
O=C(Nc1ccccc1)c1ccc(=O)[nH]n1 | 7 | 4 | -1.1 | 1.5 | -8 | -1.6 | 27 | -2% | 1 | 9.9
Cc1cc(C)c2c(c1)N[C@H](c1cccs1)[C@@H]1CCO[C@H]21 | 9 | 6 | -1.2 | 0.8 | -9 | 0.1 | -3 | -15% | 8 | 3.8
CC(C)C1Nc2ccc(C(=O)NCc3ccco3)cc2NC1=O (stereo unspecified) | 9 | 11 | -0.8 | 0.1 | 11 | 1.0 | 6 | . | -9 | -4.2
CCOc1ccc(NC(=O)CCC(=O)N2CCSc3ccccc32)cc1 | -12 | -17 | -2.0 | -1.2 | -4 | 0.7 | -8 | . | -1 | -0.5
CCOC(=O)C1CCCN(S(=O)(=O)c2cc(Br)cc3c2N(C(=O)C2CC2)CC3)C1 (stereo unspecified) | . | . | . | . | -8 | -0.8 | -1 | 0% | -11 | -6.4
COc1ccc(C(=O)N/C(=C/c2cccs2)C(=O)NN)cc1OC | 8 | 6 | -0.7 | 2.3 | -10 | 3.5 | 3 | 8% | -6 | 1.1
COc1ccc(C(CC(=O)N2CCN(C)CC2)NC(=O)C(F)(F)F)cc1 (stereo unspecified) | 16 | 14 | 1.4 | -0.5 | -2 | 1.0 | 35 | -5% | 1 | -4.6
COc1ccc(N2CCN(C(=O)CCN3C(=O)c4ccccc4S3(=O)=O)CC2)cc1 | . | . | . | . | 1 | 0.3 | 7 | 17% | . | 25
CN(C)C(=S)NC(=O)c1cccc(Cl)c1 | 5 | 6 | -0.9 | -3.1 | -4 | 0.8 | -3 | -15% | -5 | 3.3
CN(CC(=O)Nc1ccccc1Cl)CC(=O)c1c(N)n(Cc2ccccc2)c(=O)n(C)c1=O | 5 | 13 | -1.5 | 4.4 | 8 | -0.6 | . | -3% | . | .
O=C(NC1CCS(=O)(=O)C1)c1sc2ccccc2c1Cl (stereo unspecified) | 5 | 3 | 0.8 | -0.6 | -6 | 0.3 | 13 | 29% | -4 | -3.6
O=c1c(/C=N/N2CCOCC2)c(C(F)(F)F)[nH]n1-c1ccccc1 | -3 | -10 | -1.3 | 2.0 | -18 | -1.6 | -13 | 0% | -14 | -1.3
COc1cc2oc3cc(C)oc(=O)c3c2cc1OC | -2 | -7 | -0.3 | -2.0 | -7 | -0.3 | . | -5% | -17 | -2.6
Cc1[nH]c2c(Cl)cccc2c(=O)c1CN1CCCCCC1 | 5 | 6 | 6.8 | 2.1 | -2 | -0.5 | . | -17% | 57* | ?
CS(=O)(=O)c1nc(S(=O)(=O)c2ccc(Cl)cc2)c(NCCN2CCOCC2)s1 | 9 | 3 | -0.1 | -3.6 | -3 | 0.1 | 2 | . | 12 | 0.8
CCc1cccc(CC)c1NC(=O)CN1CC(C)SC1=NC1CCCCC1 (stereo unspecified) | . | . | . | . | -3 | 2.0 | 6 | -12% | 10 | 0.1
Brc1ccc(-c2cnc3n2CCCC3)cc1 | . | . | . | . | -2 | -0.3 | -1 | 4% | -13 | 3.6

New compounds follow.
SMILES | Ecoli rRNA inh | Ecoli rRNA inh OD600 | Ecoli rRNA inh RFP | MLL AF4-AF9 inh | Beta apoptosis | Bfl-1 A1 inh | Calb FLC | Vif TR-FRET | T cruzi inh | RanGTP-Imp inh
COCCCC1CCN(C(=O)C2CCC(=O)N(C3CCCC3)C2)CC1 (stereo unspecified) | 11 | 15 | 2.4 | -0.3 | 2 | 0.2 | 6 | . | 1 | 6.5
COCCn1c(=N)c(S(=O)(=O)c2ccc(Br)cc2)cc2c(=O)n3ccccc3nc21 | 1 | 4 | -1.0 | -2.0 | -11 | -0.7 | -3 | . | -4 | 119*
CCOC(=O)NC(=S)Nc1ccc(C(C)(C)C)cc1 | -13 | -3 | 5.4 | -5.9 | -5 | 0.3 | 5 | -5% | -21 | 24
COc1ccc(/C=N/NC(=O)c2nc(-c3ccccc3)n(-c3ccccc3)n2)c(O)c1 | . | . | . | . | 103* | 1.0 | 0 | 7% | 17 | ?
COc1cc(CNCCN2CCOCC2)ccc1OCc1cccc(Cl)c1 | . | . | . | . | -2 | -0.1 | -2 | 2% | 24 | ?
Oc1c(Cl)cc(Cl)cc1C1Nc2ccccc2-n2cccc21 (stereo unspecified) | -10 | -10 | -1.6 | -0.1 | 0 | -0.1 | -4 | . | -5 | -1.4
S=c1nc(-c2ccccc2)n(Cc2cccnc2)c2c1CCCC2 | . | . | . | . | 0 | 1.1 | 3 | -12% | -14 | 7.6
CCC(=O)N1CCc2cc(S(=O)(=O)N3CCN(c4ccccn4)CC3)ccc21 | . | . | . | . | -5 | 1.3 | 2 | ? | -5 | 3.3
COCCCNC(=O)Cn1cc2c(n1)CCCCC2 | 10 | 18 | -3.5 | 1.3 | 0 | -0.1 | -2 | 2% | -11 | 1.0
CCCCNC(=O)c1ccc(C)c(NC(=O)C2=C(C)OCCS2)c1 | 1 | -4 | -2.3 | 1.8 | -6 | 0.0 | 0 | 2% | -6 | 0.0
CCCC[C@@H]1C[C@H]1[C@@H](NC(=O)c1cccs1)c1ccc(C(F)(F)F)cc1 | . | . | . | . | 3 | -0.2 | -7 | . | 26 | -2.1
CN1C(=O)c2ccccc2N(C)C1c1ccccc1Cl (stereo unspecified) | -35 | -38 | -8.1 | -2.5 | -6 | 0.6 | 33 | -6% | 6 | 5.3
Cc1ccc(S(=O)(=O)Nc2ccccc2N2CCOCC2)cc1 | -2 | -32 | -2.6 | -0.9 | -1 | 0.7 | 2 | . | 5 | 1.0
COC(=O)c1ccc(Sc2nnnn2-c2ccccc2)c([N+](=O)[O-])c1 | . | . | . | . | -27 | 2.1 | -5 | 5% | 1 | -1.7
CC(C)(C)C(=O)NC1CCN(CC(=O)Nc2ccc3c(c2)OCO3)CC1 | 7 | 8 | -0.8 | 1.5 | -5 | 1.5 | -5 | . | -1 | 2.4
O=C(OC1CCOC1=O)c1ccc(-c2nc3ccccc3s2)s1 (stereo unspecified) | . | . | . | . | 4 | 0.9 | 1 | -7%&-6% | -6 | -4.5
CCCCc1cc(=O)oc2cc(OCC(=O)N3C[C@H]4C[C@@H](C3)c3cccc(=O)n3C4)ccc12 | . | . | . | -2.6 | -2 | -0.1 | -2 | . | 2 | -1.2
NNC(=O)c1ccc(COCC(F)(F)C(F)F)cc1 | -3 | -10 | 1.3 | . | -4 | 0.5 | 1 | -11% | 1 | -2.6
COc1ccc2[nH]c(=O)c(CN(Cc3cccnc3)Cc3nnnn3CC3CCCO3)cc2c1 (stereo unspecified) | 7 | 5 | -2.9 | 9.3 | -3 | 0.7 | -1 | -10% | 3 | 5.5
CCC(C)NC(=O)C1c2ccccc2C(=O)N1Cc1ccc(OC)cc1OC (stereo unspecified) | . | . | . | . | 2 | 0.4 | 1 | 27% | 5 | 0.2
COc1nc(Nc2ccc(C(C)=O)cc2)nc(OC)n1 | . | . | . | . | . | -2.9 | -6 | 8% | -29 | -0.2
CCN(CC)S(=O)(=O)c1cccc(C(=O)N/N=C/c2c(C)nn(-c3ccccc3)c2Cl)c1 | . | . | . | . | 1 | -0.2 | 15 | 7% | -6 | 4.4
CC(C)(C)n1nc2c(c1NC(=O)c1cccc(Cl)c1)CS(=O)(=O)C2 | 8 | 3 | 1.4 | -2.3 | -10 | 0.5 | -5 | . | 11 | 3.0
COc1cc(CCN2C(=O)c3cccc4cccc(c34)C2=O)c(S(=O)(=O)N2CCCCCC2)cc1OC | -8 | 3 | 4.9 | -39 | 25 | -0.2 | 6 | ? | 58* | 1.9
N#Cc1cccc(NC(=O)CSc2n[nH]c(=O)[nH]c2=O)c1 | 11 | 3 | -4.7 | -24 | -4 | -0.1 | -9 | 1% | 0 | 0.4

(list continues)
SMILES | Ecoli rRNA inh | Ecoli rRNA inh OD600 | Ecoli rRNA inh RFP | MLL AF4-AF9 inh | Beta apoptosis | Bfl-1 A1 inh | Calb FLC | Vif TR-FRET | T cruzi inh | RanGTP-Imp inh
CC(Sc1cccc[n+]1[O-])C(=O)Nc1cccc([N+](=O)[O-])c1 (stereo unspecified) | 8 | 11 | 4.5 | -0.8 | 1 | 0.5 | 1 | . | -17 | 6.2
Cc1nn(C(C)(C)C)c(OC(=O)c2ccc(Br)o2)c1Sc1ccccc1 | . | . | . | . | 7 | -0.4 | 27 | 7% | -16 | 3.3
CCCC(=O)Nc1sc2c(c1C#N)CC(C)(C)NC2(C)C | . | . | . | . | -1 | 0.3 | -5 | 2% | -20 | 0.2
CCOc1ncccc1C(=O)OCC(=O)Nc1cc(S(=O)(=O)N2CCOCC2)ccc1Cl | -7 | -12 | -3.2 | -0.1 | 0 | 0.7 | -23 | -1% | 8 | 0.5
CCN(C(=O)CSc1nnc(NCc2ccccc2)s1)C1CCS(=O)(=O)C1 (stereo unspecified) | 12 | -2 | 1.2 | -11 | -2 | 0.7 | -10 | 5% | -7 | -0.8
CCCc1cc(=O)[nH]c(-n2[nH]c3c(c2=O)CCCC3)n1 | . | . | . | . | -5 | 0.0 | 46 | 20% | 3 | 2.3
CC1S/C(=N/N=C/c2cccs2)NC1=O (stereo unspecified) | . | . | . | . | . | -0.2 | -2 | 6% | -2 | 1.2
COc1ccccc1CC(=O)Nc1ccon1 | 11 | 7 | 1.5 | 3.2 | -2 | 0.3 | -3 | . | -11 | -1.5
